High-throughput results as filed in PubChem.
HNF4A DNA FP – change in binding of human HNF4 alpha to DNA. P41235. HNF4a-FITC DNA binding, fluorescence polarization, 1 h. activity change, % at 10 µM. 360,000 compounds, 0.3% hits. AID 1224865; in the data active means activity change above about 30%, passing the limit was not always enough;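 further: controls were the assay level and a saturating level of protein; the project sought stronger binding though the title names inhibitors; some compounds called inactive have numbers as strong as hits; positive values seem to mean higher polarization but the record does not say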
Calb FLC – affects C. albicans growth with fluconazole; C. albicans CaCi-2 (fluconazole-resistant clinical isolate) + fluconazole, Alamar Blue growth, 48 h; growth inhibition, % (test concentration not listed); 300,000 compounds, 0.57% hits; AID 1979;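 active means most replicates above 75%; inconclusive means exactly half above 75%; inactive means most below 75%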;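 further: all wells also contain fluconazole at 8 µg/ml as a sub-toxic cotreatment; 0% = median of DMSO wells and 100% = median of geldanamycin control wells; wells of about 8 µL received 7.5 nL stock; the first replicate is given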
ALR inh – human ALR oxidase inhibition via reduced H2O2; P55789; purified ALR, DTT oxidation, H2O2 HRP-luminol luminescence; inhibition, % (test concentration not listed); 290,000 compounds, 3.8% hits;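 active means mean and each replicate at 75% or more; inconclusive means only one of the two met; inactive means neither met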;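 further: stock transfer was 7.5 nL into about 7.5 µL; 0% = neutral wells and 100% = wells with inactivated enzyme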
LANA-H2B inh – blocks KSHV LANA binding to histone H2A/H2B; Q9QR71; 320,000 compounds, 0.6% hits; cell-free LANA-H2A/H2B peptide, fluorescence polarization; inhibition, % (test concentration not listed); in the data active means inhibition mostly above about 10%, no sharp cut-off; inactive means mostly below about 6.7%;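 further: stock transfer was 7.5 nL into about 10 µL; 0% = median of vehicle wells and 100% = median of positive control wells; one replicate is shown; the record names a cut of 25% in any replicate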
Target sequence (Q9QR71 whole entry, looked up): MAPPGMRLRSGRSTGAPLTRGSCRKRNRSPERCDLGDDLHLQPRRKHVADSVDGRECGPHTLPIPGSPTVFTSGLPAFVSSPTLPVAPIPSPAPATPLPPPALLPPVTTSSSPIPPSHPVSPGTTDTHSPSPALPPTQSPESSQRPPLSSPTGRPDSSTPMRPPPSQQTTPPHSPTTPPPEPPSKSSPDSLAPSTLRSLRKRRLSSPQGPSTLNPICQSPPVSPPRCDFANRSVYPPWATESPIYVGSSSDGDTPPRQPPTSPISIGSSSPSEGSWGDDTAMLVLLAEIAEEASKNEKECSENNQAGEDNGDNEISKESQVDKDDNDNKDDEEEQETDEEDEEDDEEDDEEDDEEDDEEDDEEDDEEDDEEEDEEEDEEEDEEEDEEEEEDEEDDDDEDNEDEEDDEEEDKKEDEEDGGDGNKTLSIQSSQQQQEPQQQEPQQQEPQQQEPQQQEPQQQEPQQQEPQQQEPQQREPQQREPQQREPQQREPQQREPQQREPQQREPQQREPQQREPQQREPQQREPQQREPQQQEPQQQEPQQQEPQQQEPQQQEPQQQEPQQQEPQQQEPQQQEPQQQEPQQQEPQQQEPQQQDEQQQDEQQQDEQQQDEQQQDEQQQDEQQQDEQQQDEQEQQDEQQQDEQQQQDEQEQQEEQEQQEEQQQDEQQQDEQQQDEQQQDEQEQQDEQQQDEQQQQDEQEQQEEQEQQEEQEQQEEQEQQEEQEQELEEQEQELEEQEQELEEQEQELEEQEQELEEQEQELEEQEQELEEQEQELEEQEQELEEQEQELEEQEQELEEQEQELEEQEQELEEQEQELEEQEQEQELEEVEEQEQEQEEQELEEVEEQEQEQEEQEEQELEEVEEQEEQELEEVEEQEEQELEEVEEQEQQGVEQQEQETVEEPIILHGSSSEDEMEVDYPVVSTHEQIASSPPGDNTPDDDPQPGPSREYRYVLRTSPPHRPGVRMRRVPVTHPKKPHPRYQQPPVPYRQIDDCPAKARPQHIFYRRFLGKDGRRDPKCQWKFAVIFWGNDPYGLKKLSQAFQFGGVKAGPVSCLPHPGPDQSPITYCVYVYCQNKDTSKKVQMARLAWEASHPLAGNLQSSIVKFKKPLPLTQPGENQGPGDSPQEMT
RanGTP-Imp inh – disruptors of Ran-importin-beta complex formation – biochemical, FRET, CFP-Ran, YFP-importin-beta, homogeneous, primary screen; cell-free CFP-Ran/YFP-importin-beta FRET ratio; inhibition, % (test concentration not listed); 300,000 compounds, 1.1% hits;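 active means most replicates above 15%; inconclusive means exactly half above 15%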;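 further: 0% = DMSO wells and 100% = Ran loaded with GDP instead of GTP; wells of about 40 µL received 100 nL stock; the first replicate is given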
Vif TR-FRET – HIV-1 Vif–A3G interaction blockers – biochemical, TR-FRET, GST-Vif 1-94, biotin-A3G peptide, dose response retest, primary screen (AID 1117319); TR-FRET GST-Vif / biotin-A3G peptide binding; higher % means a stronger effect; test concentration not given here; strong numbers were not always called active; inhibition, %; hits with a dose series show IC50 in µM; 260,000 compounds, 0.57% hits;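 active means above the screen mean plus three standard deviations and confirmed in dose response; inconclusive means results disagree or hit not tested in dose response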;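 further: Vif residues 1-94 fused to GST binding biotinylated APOBEC3G peptide 110-148; 0% = full assay without inhibitor and 100% = GST in place of GST-Vif; retest series ran down from 100 µM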
Beta2AR agonist – agonists of human beta-2 adrenergic receptor inducing internalization; P07550; Am2.2-beta2AR cells, FAP receptor internalization, flow cytometry; reference of the scale not given here; response, % (concentration not given with the values); 340,000 compounds, 0.43% hits;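 active means response above a set limit, near 3 SD of response in nonfluorescent compounds, cut at about 42% in these data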;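 further: stock transfer was 100 nL into about 11 µL; a reference agonist was the positive control; negative values mostly stem from fluorescent compounds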
An asterisk follows results filed as active; u = inconclusive; x = not tested or not shown. An unsorted share of the library; overall some 6.3% were active at least once.

SMILES | HNF4A DNA FP | Calb FLC | ALR inh | LANA-H2B inh | RanGTP-Imp inh | Vif TR-FRET | Beta2AR agonist
COc1ccc(-c2ccc(C#N)c(SCC(=O)OCc3ccccc3)n2)cc1OC | 3.4 | 1 | -5 | 0.0 | 2.7 | -52% | 3
Cc1cc(C)n2nc(SCC(=O)N(CC(C)C)c3c(N)n(CC(C)C)c(=O)[nH]c3=O)nc2n1 | 0.4 | -1 | -1 | 2.3 | 0.2 | 3% | -2
COc1ccc(NC(=S)NC(=O)/C=C/c2ccco2)cc1 | -1.4 | -12 | 3 | 0.1 | 1.2 | x | -3
Cc1ccc2nc3c(c(C(=O)OC4CCOC4=O)c2c1)CCCC3 (configuration not stated) | -1.3 | -13 | 7 | 1.5 | -0.5 | 1% | 2
CCOC(=O)CNS(=O)(=O)CCN1C(=O)c2ccccc2C1=O | 0.6 | 3 | -5 | -0.1 | 4.1 | u | -78
O=C(NN1CCOCC1)c1cc(Cl)ccc1Cl | -1.5 | -1 | -1 | 3.3 | -2.2 | x | -2
COCCCNC(=S)N1CCCN(c2nc3c(C)c(C)ccc3cc2C#N)CC1 | 16 | -17 | 64 | 8.6 | 43* | 6% | -3
Cc1ccnc2ccc(SC(F)(F)F)cc12 | 2.3 | 14 | 0 | -3.7 | -0.4 | -2% | -3
CCOc1cccc(CNc2ccc(O)cc2)c1OCc1ccc(Cl)cc1Cl | 0.8 | -1 | 17 | -2.3 | -5.2 | u | 3
C[C@@H]1CCC[C@@]2(O[C@@H](CCO)C[C@H](O)[C@H]2O)O1 | 2.9 | -14 | -2 | 0.5 | -1.6 | x | 0
Cc1ccc(S(=O)(=O)N2CCN(C(=O)c3ccc(OCc4c(C)noc4C)cc3)CC2)cc1 | 4.5 | -1 | -1 | 2.4 | -3.9 | 1% | 2
N/C(=N\OC(=O)c1ccc2ccccc2c1)c1ccccn1 | 5.6 | 18 | -7 | 0.0 | u | -6% | -7
CCOc1cc(C(=O)NC(C)C2CCCO2)cc(OCC)c1OCC (configuration not stated) | 0.4 | 9 | -4 | 2.1 | 5.2 | 3% | -2
Cc1cc(/C=C(\C#N)C(=O)NCc2ccco2)c(C)n1C1CCCC1 | 4.5 | -6 | -1 | -5.5 | -3.6 | 2% | -6
CS(=O)(=O)c1ccc(C(=O)NNC(=O)c2cccs2)cc1 | -1.9 | x | -5 | -1.8 | x | x | 3
CCOC(=O)N1CCN(C(=O)CSc2nnc(-c3ccc(C(C)(C)C)cc3)o2)CC1 | 2.8 | -8 | 7 | -1.1 | 7.0 | 8% | 0
CCOCCCn1c(SCC(=O)Nc2cc(OC)ccc2OC)nc2ccccc2c1=O | -1.5 | 6 | -3 | 3.5 | -2.3 | -2% | -3
O=C(OC1Cn2c(=O)ccc(=O)n2C1)c1ccccc1 | 4.9 | 6 | x | 1.3 | 7.6 | -4% | -3
O=C(Nc1ccc(Oc2cccnc2)cc1)C1CCN(Cc2cc(Cl)ccc2O)CC1 | 3.0 | 3 | -1 | -3.7 | -2.9 | x | 4
Cc1cc(S(=O)(=O)Nc2ccc(C(=O)NCC3(N4CCCCC4)CCCCC3)cc2)ccc1F | -0.5 | 1 | -1 | 0.4 | 6.7 | -7% | 2
O=C(COc1ccc(F)cc1)Nc1nc2c(s1)CCCC2 | 2.5 | -16 | -1 | -2.6 | 3.1 | 3% | -4
COC(=O)c1sccc1NC(=O)Nc1cccc(C)c1 | 4.5 | 9 | -1 | 3.0 | -2.7 | -11% | 2
FC(F)(F)c1nc2ccccc2nc1N/N=C/c1c(Cl)cccc1Cl | -0.9 | 1 | -2 | -2.6 | 0.2 | 1% | -4
N/C(=N\OC(=O)c1ccc2c(c1)OCO2)c1ccncc1 | -1.9 | 8 | 1 | 8.8 | 3.2 | 16% | 2
Cc1nnc(SCC(=O)NC2CCCC2)n1CCc1ccccc1 | 0.5 | 6 | 2 | -2.5 | 2.8 | -9% | 1

Exported with values under each structure: 2 of the compounds above.
Every second line gives: HNF4A DNA FP | Calb FLC | ALR inh | LANA-H2B inh | RanGTP-Imp inh | Vif TR-FRET | Beta2AR agonist
> Cc1cc(C)n2nc(SCC(=O)N(CC(C)C)c3c(N)n(CC(C)C)c(=O)[nH]c3=O)nc2n1
→ 0.4 | -1 | -1 | 2.3 | 0.2 | 3% | -2
> COc1ccc(NC(=S)NC(=O)/C=C/c2ccco2)cc1
→ -1.4 | -12 | 3 | 0.1 | 1.2 | x | -3

(listing goes on)
SMILES | HNF4A DNA FP | Calb FLC | ALR inh | LANA-H2B inh | RanGTP-Imp inh | Vif TR-FRET | Beta2AR agonist
CC(C)C[C@H](NC(=O)OC(C)(C)C)C(=O)NCC1CCC(C(=O)N[C@@H](Cc2ccccc2)C(=O)O)CC1 (some centres not stated) | 0.8 | -4 | -2 | -4.6 | 5.0 | -5% | -6
Cn1c(CN2CCOCC2)nc2cc(NC(=O)c3ccc(Cl)cc3)ccc21 | -2.5 | 5 | x | 0.8 | 2.8 | -4% | -1
Cc1ccn2c(C(=O)NN=C3CCCCCCC3)c(C)nc2c1 | 1.0 | 36 | 37 | -1.1 | -1.7 | x | -3
COc1ccc(C(=O)Nc2nccs2)cc1OC | -2.9 | -6 | -6 | -1.7 | 3.7 | 1% | 0
CC(c1ccccc1)n1cc(C(=O)NCC2CCCO2)nn1 (configuration not stated) | 0.2 | 5 | -2 | -8.5 | 1.1 | 14% | -6
Cc1ccc(N(Cc2cc3cc(C)ccc3[nH]c2=O)S(=O)(=O)c2ccccc2)cc1 | -2.2 | -9 | -3 | 0.6 | 1.4 | x | 7
COc1ccccc1/C=C(/C(=O)OCC(=O)Nc1ccccc1C)c1ccccc1 | -2.1 | -28 | -4 | -4.7 | -2.8 | x | 5
CCN(CC)c1ccc(/C=N/NC(=O)c2ccc3nc[nH]c3c2)cc1 | 0.9 | -2 | 99* | 5.0 | -2.0 | -6% | 2
Cc1cc2nc3n(c2cc1C)CC1CC(C(=O)NCc2cccc(Br)c2)N(C)C31 (configuration not stated) | -3.0 | -25 | x | -2.3 | 4.5 | x | -3
Cc1ccc(S(=O)(=O)N(C)CC(=O)Nc2ccc(C)cn2)cc1 | -2.9 | 4 | 2 | -4.0 | -4.6 | 5% | 1
COC(=O)CSc1nnc(-c2sc3cc(OC)ccc3c2Cl)n1C | 1.1 | -8 | -4 | -1.8 | -0.2 | 3% | -1
CCc1cccc(C)c1NC(=O)CSc1nnc(CCCOc2ccc(Cl)cc2Cl)n1C | -0.6 | 0 | -1 | 4.1 | -3.7 | x | -1
CC1Cc2cc(/C(O)=C3/C(=O)C(=O)N(CCN4CCOCC4)C3c3cccc(O)c3)ccc2O1 (configuration not stated) | 3.6 | 23 | 1 | 8.4 | 2.6 | -2% | -4
COc1ccc(CCNC(=O)CN(C)S(=O)(=O)c2cccs2)cc1 | 1.7 | x | -2 | -1.2 | x | -6% | 6
COc1ccc(-n2nc(C(=O)N3CCCCC3)c3ccccc3c2=O)cc1 | -0.3 | x | 1 | 7.1 | x | 13% | 1
CCCCc1c(O)nc(SCC(=O)c2ccccc2)n(-c2ccccc2C)c1=O | -2.9 | -6 | 97* | 2.9 | -1.5 | -11% | 4
Cc1ccc(-c2ccc(/C=C(\C#N)C(=O)Nc3cc(C)nn3-c3ccccc3)o2)cc1 | x | -9 | -6 | 23* | -6.5 | 1% | x
CSC1=NCCN1S(=O)(=O)c1ccc(F)cc1 | -2.5 | u | -1 | -0.2 | 2.1 | 6% | 4
CCn1nc2cc(C(=O)NCCc3cccs3)ccc2c1OC | -1.8 | -2 | 14 | -0.8 | 1.8 | -8% | 3
O=C(NCc1ccccc1)C(c1ccc(F)cc1)N(Cc1cccs1)C(=O)c1cnccn1 (configuration not stated) | 1.4 | -3 | -4 | 1.0 | -3.2 | 1% | 6
CC(C)(C)NCCOCCOc1ccccc1-c1ccccc1 | 3.8 | -47 | x | x | -0.4 | 24% | 5
O=C(NCC1CCCCC1)C12CN(Cc3ccccc3)CC1C(c1cccc([N+](=O)[O-])c1)=NO2 (configuration not stated) | -4.4 | 3 | -1 | 0.0 | -0.8 | 9% | -2
CN(CCOc1ccccc1)C(=O)c1ccc2c(c1)OCO2 | -0.7 | x | 1 | 7.5 | x | -17% | 1
Cc1ccc(S(=O)(=O)NCC(=O)N(CC(=O)NCC2CCCO2)CC2CCCO2)cc1 (configuration not stated) | -1.4 | 1 | 2 | -4.4 | 3.8 | x | -4
O=C(CCNS(=O)(=O)c1ccccc1)N1CCCC1 | 0.1 | 26 | -3 | -17 | -2.2 | x | -1
SMILES | HNF4A DNA FP | Calb FLC | ALR inh | LANA-H2B inh | RanGTP-Imp inh | Vif TR-FRET | Beta2AR agonist
CN(Cc1nc2ccccc2c(=O)[nH]1)C(=O)c1ccc(S(=O)(=O)N(C)C)cc1 | 2.8 | -20 | 5 | 1.1 | u | -3% | -5
Cc1[nH]c2ccccc2c1/C=N/NC(=O)c1cc(-c2ccncc2)nc2ccccc12 | 1.9 | 0 | 0 | -4.8 | 1.3 | x | 7
COC(=O)NNC(=O)c1cccc(C)c1 | 0.6 | 21 | -2 | -0.7 | 5.2 | 15% | 0
CC1=NNC(=O)C1CCC(=O)N/N=C(\C)c1ccc(Cl)cc1 (configuration not stated) | -0.1 | 1 | 18 | 3.3 | -1.0 | -15% | 2
CN(CCCC(=O)N1CCN(c2ncccn2)CC1)S(=O)(=O)c1ccc(F)cc1 | 2.3 | x | x | 3.2 | x | x | -3
Cc1ccc(NC(=O)CN(C)S(=O)(=O)c2cccc3cccnc23)c(C)c1 | 0.3 | -1 | 7 | -0.6 | 2.7 | x | 2
Cc1nc2ncccn2c1-c1csc(Nc2ccc(S(N)(=O)=O)cc2)n1 | 1.2 | 2 | 23 | 0.0 | -3.3 | -4% | -11
CC(=O)c1ccc(-n2nnnc2SCC(=O)Nc2cccc(NC(=O)c3ccco3)c2)cc1 | -2.5 | -5 | 99* | 8.9 | -2.1 | -1% | -4
COCCCNS(=O)(=O)c1ccc2c3c(cccc13)C(=O)S2 | -3.2 | -2 | -5 | -0.3 | 0.4 | 12% | -5
Cc1ccccc1S(=O)(=O)Cc1ccc(C(=O)NC2CCCCCC2)o1 | -1.4 | 5 | -5 | -0.7 | 3.4 | 10% | -1
Cc1ccccc1-c1nc(CN(C)C(C)c2ccon2)c(C)o1 (configuration not stated) | -1.7 | 38 | -7 | 1.8 | 0.9 | -1% | 3
O=C(NCC(=O)N(c1ccccc1)C(C(=O)NC1CCCCC1)c1cccnc1)c1ccco1 (configuration not stated) | -0.6 | 3 | 1 | 9.0 | 0.2 | x | -8
CC1CCCC(C)N1CCNC(=O)CCc1nnc2n(Cc3ccccc3)c(=O)c3ccccc3n12 (configuration not stated) | -3.4 | -3 | -89 | 0.8 | 6.6 | -8% | -21
Fc1cccc(Cc2noc(CN3CCN(C4CCc5ccccc5C4)CC3)n2)c1 (configuration not stated) | -0.1 | -3 | x | -6.8 | -2.9 | x | -32
COC(=O)c1cccc(C23CC4(C2)[C@H](CN(Cc2ccc(-c5ccccc5)cc2)[C@@H]4c2ccccc2)C3c2ccc(C(F)(F)F)cc2)c1 (some centres not stated) | x | -16 | -12 | -0.6 | u | x | x
O=C(O)c1ccccc1SCC(=O)N1CCOCC1 | -0.7 | 9 | 4 | -1.7 | 1.9 | 12% | -11
Cc1ccc2[nH]c3c(NCc4ccccc4)ncnc3c2c1 | x | -5 | -7 | 3.2 | 4.2 | x | x
C/C(=N\NC(=O)c1cccs1)C(C)(C)C | 3.7 | 18 | x | -0.5 | 2.5 | x | -7
CCc1ccc(/C=C\C(=O)N2CCc3ccccc3C2)cc1 | 0.6 | 0 | 4 | -5.6 | 1.3 | 19% | 2
COc1ccc2c(c1OC)C(=O)N(c1ccc(O)cc1)C2=O | 3.8 | 0 | 55 | -0.5 | 5.8 | 16% | -5
COc1cc(N)c(Cl)cc1Cl | 3.6 | 3 | -28 | -2.4 | 1.6 | -2% | 11
